KCNQ2 block: KCNQ2 potassium channel inhibitors, primary screen, cell-based, CHO-K1, FluxOR thallium flux, B-score (AID 2156). O88943. 20 min; active compounds read low; only compounds with negative scores are shown here; some inactives read as strong as hits. B-score at 10 µM. 310,000 tested, 1.1% active;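 active = fluorescence ratio B-score at most minus 3 library SDs, with starting brightness B-score within 2 library SDs, cut at about -5.5 in these data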
Target sequence (O88943 whole entry, looked up): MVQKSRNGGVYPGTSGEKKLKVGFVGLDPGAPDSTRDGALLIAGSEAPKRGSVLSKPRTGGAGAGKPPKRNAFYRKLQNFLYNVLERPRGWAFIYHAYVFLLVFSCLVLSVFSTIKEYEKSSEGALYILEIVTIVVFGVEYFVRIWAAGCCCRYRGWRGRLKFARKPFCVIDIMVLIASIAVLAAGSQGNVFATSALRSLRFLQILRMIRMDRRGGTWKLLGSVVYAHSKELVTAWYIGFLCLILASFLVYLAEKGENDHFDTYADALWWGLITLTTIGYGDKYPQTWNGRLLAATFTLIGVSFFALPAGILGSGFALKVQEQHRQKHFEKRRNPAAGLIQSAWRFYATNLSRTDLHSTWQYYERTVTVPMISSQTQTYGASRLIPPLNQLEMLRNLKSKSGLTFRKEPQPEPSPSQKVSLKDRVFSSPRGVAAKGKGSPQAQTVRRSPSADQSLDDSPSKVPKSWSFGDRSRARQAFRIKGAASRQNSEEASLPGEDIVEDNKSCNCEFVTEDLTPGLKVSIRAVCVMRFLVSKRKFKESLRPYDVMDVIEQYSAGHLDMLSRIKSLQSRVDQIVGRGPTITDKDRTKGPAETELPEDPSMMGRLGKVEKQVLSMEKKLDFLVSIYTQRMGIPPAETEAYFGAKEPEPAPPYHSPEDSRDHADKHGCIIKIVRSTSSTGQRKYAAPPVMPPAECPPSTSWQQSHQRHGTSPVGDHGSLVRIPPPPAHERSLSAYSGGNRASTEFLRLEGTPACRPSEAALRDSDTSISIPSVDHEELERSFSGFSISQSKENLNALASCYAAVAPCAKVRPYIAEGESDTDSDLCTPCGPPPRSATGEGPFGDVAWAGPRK
KCNQ2 block baseline: recorded beside KCNQ2 block, whose call it bears; B-score; measured here: initial fluorescence intensity artifact check;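 brightness before thallium and not channel activity; 0 = typical well and far values either way flag optical interference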
Starred values were filed as active, the others as inactive; i = inactive.

SMILES	KCNQ2 block	KCNQ2 block baseline
O=C(Nc1ccc(S(=O)(=O)N2CCCC2)cc1)c1ccc([N+](=O)[O-])cc1	i	0.56
C/C(=N\N(c1ccccc1)c1ccccc1)c1ccc(O)cc1	i	-1.7
COCCNC(=S)N(CCO)Cc1cc2cc3c(cc2[nH]c1=O)OCCO3	i	0.54
Cc1ccc2nc(/C=C/c3cccc(F)c3)ccc2c1	i	-3.4
CCCc1nnc(NC(=O)CCC(=O)NCc2ccccc2Cl)s1	i	0.57
COC(=O)c1ccccc1NS(=O)(=O)c1cn(C)c(=O)n(C)c1=O	i	0.26
Cc1nc(-c2ccc(C(=O)NCCO)cc2)cs1	i	-2.2
O=c1cc(O)n(-c2ccc(F)cc2)c(=S)[nH]1	i	0.23
COc1ccc(CCC(=O)NCc2cn3ccc(C)cc3n2)cc1	i	1.2
O=S(=O)(NC1CCc2ccccc21)c1ccc(S(=O)(=O)N2CCCC2)cc1 (stereo not drawn)	i	-2
Cc1nnc(NC(=O)c2c(-c3ccccc3)noc2C)s1	i	-0.09
O=C(NC1CCCCC1)N1CCN(c2ncccn2)CC1	i	0.04
COCc1cc(C)nc(SCC(=O)Nc2cc3c(cc2C#N)OCO3)c1C#N	i	2
COc1ccc(OC)c(CNC(=O)c2nn(C)c3c2CS(=O)(=O)c2ccccc2-3)c1	i	-0.38
COC(=O)C(Cc1ccc(O)cc1)NC(=O)CCc1ccco1 (stereo not drawn)	i	-0.52
Cc1cccc2nc(COc3ccc(-c4ccccc4)cc3)cn12	i	-1.9
O=C1c2ccccc2CC1Sc1nnc(-c2ccccn2)o1 (stereo not drawn)	i	1.4
CCOP(=O)(OCC)c1cccc(P(=O)(c2ccccc2)c2ccccc2)c1O	i	0.56
COC(=O)c1ccc(NC(=O)C2CCCN2C(=O)OCc2ccccc2)cc1 (stereo not drawn)	i	-0.68
O=C(c1cc(-c2ccccc2O)on1)N1CCOCC1	i	0.42
COC(=O)C1(C(C[N+](=O)[O-])c2ccco2)C(=O)NCC1c1ccccc1 (stereo not drawn)	i	-1.9
CCOc1c(OC(C)=O)ccc(/C=C2\N=C(SCC)SC2=O)c1[N+](=O)[O-]	i	-1.2
Cc1c([N+](=O)[O-])cc(S(=O)(=O)Nc2ccc(-c3ccc(N4CCCC4)nn3)cc2)cc1[N+](=O)[O-]	i	0.03
Nc1nc(CSc2nnc(-c3cccc(F)c3)n2-c2ccccc2)nc(N2CCOCC2)n1	i	0.43
COCCN(CCOC)C(=O)c1ccc(CSc2nc3ccccc3s2)cc1	i	0.01

Ordered by number of heavy atoms (low to high): some entries from above.
SMILES	KCNQ2 block	KCNQ2 block baseline
COC(=O)c1ccccc1NS(=O)(=O)c1cn(C)c(=O)n(C)c1=O	i	0.26
O=C(Nc1ccc(S(=O)(=O)N2CCCC2)cc1)c1ccc([N+](=O)[O-])cc1	i	0.56
O=S(=O)(NC1CCc2ccccc21)c1ccc(S(=O)(=O)N2CCCC2)cc1 (stereo not drawn)	i	-2

Other entries:
SMILES	KCNQ2 block	KCNQ2 block baseline
O/N=C/c1cc(Cl)ccc1OCc1cccc2ccccc12	i	-0.67
COc1cccc(N2CCN(S(=O)(=O)c3cccc4nsnc34)CC2)c1	i	2.2
Cc1cc(=O)nc2c3ccccc3n(C(C)C(=O)Nc3cc(F)ccc3F)n12 (stereo not drawn)	i	0.04
Cc1c(NC(=O)COc2ccc3ccc(=O)oc3c2)c(=O)n(-c2ccccc2)n1C	i	0.76
CCS(=O)(=O)N1CCN(C(=O)C(c2ccccc2)c2ccccc2)CC1	i	-0.27
C=CCn1cc(-c2ccc(Cl)cc2)cc(C#N)c1=O	i	0.46
CC(C)(C)C(=O)Nc1nnc(CCc2ccccc2)s1	i	1.6
FC(F)(F)c1cc(-c2ccco2)nc(-n2cnc3ccccc32)n1	i	-0.45
Cn1cc(S(=O)(=O)N2CCC3(CC2)OCCO3)c(=O)n(C)c1=O	i	-2.5
CC1CCN(S(=O)(=O)c2ccc3c(c2)N(CC(=O)NCCCN2CC(C)CC(C)C2)C(=O)CS3)CC1 (stereo not drawn)	i	-1.3
Cc1onc(-c2c(F)cccc2Cl)c1C(=O)c1ccc(F)cc1	i	1.9
CCn1c(SCC(=O)NNC(=O)c2ccco2)nnc1-c1ccco1	i	0.5
CC1(C)Cc2ccccc2-c2nnc(-c3cccnc3)n21	i	0.89
O=C(CCN1C(=O)S/C(=C\c2ccccc2)C1=O)N1CCCCC1	i	-0.08
O=C(c1cccs1)N(C(=O)c1cccs1)c1ccc(Br)cn1	i	-2
Cc1ccc(NC(=O)c2cc3ccccc3o2)cc1Cl	i	-0.27
Cc1cccc(NC(=S)NNC(=O)c2csc(C(C)C)c2)c1	i	-0.05
COc1cc(NC(=O)C/C(C)=N/NC(=O)Cc2ccc(Cl)cc2)c(OC)cc1Cl	i	0.91
CCn1cc([N+](=O)[O-])c(=O)c2cc(F)c(N3CCOCC3)cc21	i	1.5
CCOc1ccc(NC(=O)Nc2cccc(C)n2)cc1	i	-0.78
COc1ccc(Cn2nnnc2C(C(C)C)N2CCc3ccccc32)cc1 (stereo not drawn)	i	-0.55
Nc1cccc(-n2nncc2-c2ccccc2)c1	i	1.5
O=S(=O)(c1ccccc1)c1nc(-c2ccc(F)cc2)oc1N1CCOCC1	i	-0.02
COc1ccc(NC(=O)CN2CCN(c3c(C)cccc3C)CC2)cc1	i	-0.03
CC1Cc2ccccc2N1Cc1cc(=O)c(OCC(=O)NCCc2ccccc2)co1 (stereo not drawn)	i	0.68
SMILES	KCNQ2 block	KCNQ2 block baseline
COc1cc(C(=O)OCC(=O)NC(=O)c2cccn2C)ccc1OC(F)F	i	-0.05
O=C(Cc1ccccc1)NCC(=O)OCC(=O)c1cccs1	i	-0.23
COc1ccc(-n2c(-c3ccc(Br)cc3)nc(=S)c3c2CCCC3)cc1	i	0.6
COc1ccc(CCC(C)NCCc2ccc(Cl)cc2Cl)cc1 (stereo not drawn)	i	-2
CCCCN(CC)C(=O)c1cc2cc3ccc(Cl)cc3nc2o1	i	-0.82
CCOC(=O)CSc1nc2c(sc(=S)n2-c2ccccc2OC)c(=O)n1-c1ccccc1OC	i	1.3
CS(=O)(=O)N(CCc1ccccc1)CC(=O)N1CCc2ccccc2C1	i	-0.39
COc1ccc(N=C2SCC(c3ccc(C)cc3)=NN2CCO)cc1	i	1.9
CCN(CC)S(=O)(=O)c1ccc(C)c(NC(=O)Cc2ccc(S(=O)(=O)N3CCOCC3)s2)c1	i	-0.5
O=S(=O)(NCCSc1ccc(Cl)cc1)c1ccc(F)cc1	i	0.2
CN1C(=S)SC(/[N+]([O-])=C\c2ccccc2)C1(C)C (stereo not drawn)	i	-1.1
Cc1cc(O)c(NC(=O)c2cc([N+](=O)[O-])ccc2Cl)cc1C	i	-1.1
COc1ccc(NC(=O)CN2CCC(C(N)=O)(N3CCCCC3)CC2)c(OC)c1	i	-0.62
Cc1ccc(-n2cc(-c3ccccc3)c3c(N4CCOCC4)ncnc32)cc1	i	-0.93
COc1ccccc1-c1nc(COc2ccc(Cl)cc2Cl)no1	i	0.99
CC(OC(=O)c1cc2sccc2n1C)C(=O)NCc1cccs1 (stereo not drawn)	i	-0.24
CCOC(=O)c1nn(-c2ccc(Cl)cc2)c2nnc(Cc3ccccc3)c(=O)n12	i	2
O=C(NCC1OCCc2ccccc21)c1cc(COc2c(F)cccc2F)on1 (stereo not drawn)	i	-0.47
COc1ccc(OC)c(C2C(C#N)=C(N)Oc3cc(N)ccc32)c1 (stereo not drawn)	i	0.95
CCn1c(=O)c(C(=O)NCc2ccccc2)c(O)c2ccccc21	i	1
CCOc1ccc(N2CC(C(=O)NCCc3ccccc3)CC2=O)cc1 (stereo not drawn)	i	-0.26
N/C(CN1CCSCC1)=N\OCc1c(F)cccc1Cl	i	-0.25
Oc1ccc(C=NC2CCCCC2)c(O)c1	i	0.26
Cc1cc(NC(=O)COC(=O)CCS(=O)(=O)c2ccc(Cl)cc2)no1	i	0.25
Cc1cc2nc(CCN3CCOCC3)n(S(=O)(=O)c3ccc(C(C)(C)C)cc3)c2cc1C	i	0.52

Reprinted from the part before: six compounds; new compounds follow.
SMILES	KCNQ2 block	KCNQ2 block baseline
CCn1c(=O)c(C(=O)NCc2ccccc2)c(O)c2ccccc21	i	1
CCOc1ccc(N2CC(C(=O)NCCc3ccccc3)CC2=O)cc1 (stereo not drawn)	i	-0.26
N/C(CN1CCSCC1)=N\OCc1c(F)cccc1Cl	i	-0.25
Oc1ccc(C=NC2CCCCC2)c(O)c1	i	0.26
Cc1cc(NC(=O)COC(=O)CCS(=O)(=O)c2ccc(Cl)cc2)no1	i	0.25
Cc1cc2nc(CCN3CCOCC3)n(S(=O)(=O)c3ccc(C(C)(C)C)cc3)c2cc1C	i	0.52
Cc1ccc(CNS(=O)(=O)N(C)C)cc1	i	-0.13
COc1ccc(NC(=O)CCN2C(=O)C3CC=C(Cl)CC3C2=O)cc1 (stereo not drawn)	i	0.51
Cc1cc(Cl)ccc1C(=O)C1CCCN(C(=O)c2cc(C(C)C)no2)C1 (stereo not drawn)	i	-1.7
CCCCNC(=O)C1CC(=O)N(c2ccc(OC)cc2)C1c1ccc(OC)cc1 (stereo not drawn)	i	0.09
CCCCC1=CC2=CC(=O)C(C)(OC(=O)CC)C(=O)C2=CN1Cc1ccco1 (stereo not drawn)	i	-1.3
CCN(CC(=O)Nc1c(F)cccc1F)C(=O)c1cc2ccccc2oc1=O	i	1.1
O=C(/C=C/c1ccc(O)c(O)c1)NC(=O)c1ccccc1O	i	1.2
CCOC(=O)c1c(NC(=O)c2cc(-c3ccc(O)cc3)on2)sc(C(C)=O)c1C	i	-1.6
Fc1ccc(-c2csc(Nc3ccccn3)n2)cc1	i	0.18
O=C1NC(=Nc2ccccc2)S/C1=C/c1cccs1	i	0.17
Cc1ccc2cc(C)c(SCC(=O)NCc3ccco3)nc2c1	i	0.07
O=C(NCCCc1ccccc1)C(=O)NCC1OCCN1S(=O)(=O)c1ccc(F)cc1 (stereo not drawn)	i	0.28
CCOc1ccc2nc(NCCCO)[nH]c2c1	i	-0.49
CCn1c(C)nc2cc(C(=O)NNC(=O)Nc3ccc(Cl)cc3)ccc21	i	-0.71
CN=c1scc(-c2cccs2)n1/N=C/c1ccccc1O	i	1.3
O=C(Nc1ccccc1)Nc1cc(OCC(F)(F)F)cc(OCC(F)(F)F)c1	i	-2.1
O=C(Nc1c(F)cc(F)cc1Br)c1cc(-c2ccc(O)cc2)on1	i	-0.19
COC(=O)c1sccc1NC(=O)CSc1cc(Cl)ccc1Cl	i	1.3
COc1ccc(N(C(=O)c2ccncc2)S(=O)(=O)c2ccc(F)cc2)cc1	i	-1.9
CC(=N\NC(=O)c1ccc([N+](=O)[O-])cc1)/C(=N/O)C(=O)Nc1ccccc1	-5.8*	2.8*
NNc1nc2c(F)cccc2s1	i	-0.73
NC(N)=NS(=O)(=O)c1ccc(N=C2C(=O)Nc3ccccc32)cc1	i	1.1
N#CC(C(=O)NCCc1ccccc1)c1nc2ccccc2nc1N1CCOCC1 (stereo not drawn)	i	2
COc1cccc2cc(C(=O)NCCN3CCOCC3)c(=O)oc12	i	-0.64
CC(=O)N1CCC(C(=O)NC2CC(C)(C)Cc3c2cnn3-c2ccc(F)cc2)CC1 (stereo not drawn)	i	1.8

4 entries from above, reformatted.
Cc1cc(Cl)ccc1C(=O)C1CCCN(C(=O)c2cc(C(C)C)no2)C1 (stereo not drawn)
  KCNQ2 block: i; KCNQ2 block baseline: -1.7
Fc1ccc(-c2csc(Nc3ccccn3)n2)cc1
  KCNQ2 block: i; KCNQ2 block baseline: 0.18
CCN(CC(=O)Nc1c(F)cccc1F)C(=O)c1cc2ccccc2oc1=O
  KCNQ2 block: i; KCNQ2 block baseline: 1.1
CC(=N\NC(=O)c1ccc([N+](=O)[O-])cc1)/C(=N/O)C(=O)Nc1ccccc1
  KCNQ2 block: -5.8*; KCNQ2 block baseline: 2.8*

Continued.
SMILES	KCNQ2 block	KCNQ2 block baseline
Cc1cc(=O)oc(C)c1C(=O)OC(C(=O)c1ccccc1)c1ccccc1 (stereo not drawn)	i	0.03
CC(C)OCCCNC(=O)c1cc(Sc2ccc(F)cc2)nc2ccccc12	i	-0.4
Cc1cc(C)nc(N2CCC(C(=O)Nc3ccc4c(c3)OCCO4)CC2)n1	i	0.77
O=C(CC1C(=O)NCCN1Cc1cccc(Oc2ccccc2)c1)NCCc1ccccn1 (stereo not drawn)	i	0.1
COc1ccc(OC)c(C(=O)N2CCC(C(=O)c3ccc(F)cc3)CC2)c1	i	4
Clc1ccc2c(c1)C(N1CCNCC1)Cc1ccccc1S2 (stereo not drawn)	-12*	0.53*
CS(=O)(=NS(=O)(=O)c1ccc(Cl)cc1)c1ccccc1 (stereo not drawn)	i	0.17
CN(C)/C=N/c1ncc(C(=O)c2ccc(Cl)cc2Cl)s1	i	0.01
O=C(Oc1ccc2c(=O)c(Cl)coc2c1)c1ccncc1	i	-0.31
CCCCN(CC)CCNC(=O)c1[nH]c(C)c(C(C)=O)c1C	i	-2
CCOc1ccc2c(c1)C(C)=CC(C)(C)N2C(=O)Nc1ccccc1	i	1.2
COc1ccc(OC)c(C(C(=O)NC2CCCCC2)N(Cc2ccco2)C(=O)c2ccccn2)c1 (stereo not drawn)	i	0.27
O=C1CSC(=Nc2ccccc2)N1Cc1ccccc1	i	-0.8
COc1ccc(N2C(=O)CSC2c2ccccc2[N+](=O)[O-])cc1 (stereo not drawn)	i	-0.32
Cc1cccc(C(=O)c2cn[nH]c2-c2ccc(C)cc2O)c1	i	-0.53
O=C(COC(=O)C1CC(O)CN1S(=O)(=O)c1ccc(Cl)cc1)c1cccc(Cl)c1 (stereo not drawn)	i	0.03
COc1ccc(NC(=O)CN(C)C(=O)Cc2c(C)nc3ccccc3c2C)cc1	i	1.9
Cc1nn(Cc2ccc(Cl)cc2)c(C)c1NC(=O)c1cc(-c2ccco2)on1	i	0.05
O=C(Nc1ccc(Br)cc1)C1CC(c2c(F)cccc2Cl)=NO1 (stereo not drawn)	i	-0.99
Cc1cc(Nc2ccccc2)nn1C(=O)c1ccc(Cl)cc1	i	3.1

This is a subset; rates above refer to the full screens.
